Bioassay records deposited in PubChem by National Center for Advancing Translational Sciences (NCATS).
Vaccinia Venus = vaccinia inhibition (Venus reporter) | AID 720580 | Vaccinia virus Venus reporter expression, fluorescence | 330,000 compounds, 0.46% hits | Potency, µM (titrated, usually from 36.5 µM), for inactives: top-dose activity change, negative = inhibition, usual class: inhibitors; active means well fitted inhibition curve with a large enough effect; inconclusive means small, poorly fitted or top-dose-only effect; inactive means no such curve, though single readings can be large or run the other way; tested in A549 cells; note: nearly all actives have a fitted effect of over 30% in size; inactives centre near -10
Vaccinia mCherry = inhibitors of vaccinia virus infection (mCherry reporter signal) | AID 720579 | Potency, µM (titrated, usually from 36.5 µM), inactives show top-dose activity change, negative = inhibition, actives largely listed as inhibitors | 310,000 compounds, 0.63% hits | Vaccinia virus mCherry reporter infection, fluorescence; about a quarter of the inactives have no number; active = well fitted inhibition curve with a large enough effect; inconclusive = small, poorly fitted or top-dose-only effect; inactive = no such curve, though single readings can be large or run the other way; tested in A549 cells; note: nearly all actives have a fitted effect of over 35% in size; inactives centre near -10
Active calls of the source: *; i = inactive; ? = inconclusive; . = not tested or not shown. % is set by controls: 0 for no effect and ±100 for the full control effect; potency is the fitted concentration of half-maximal effect. No enrichment for hits, and some 0.87% of all compounds hit somewhere here.

Order of results: Vaccinia Venus | Vaccinia mCherry
[1] CC(C)(C)OC(=O)CC[C@@H](C(=O)N1CCN(C(=O)OC(C)(C)C)CC1)n1cc(C(Cc2ccc(O)cc2)NC(=O)OC(C)(C)C)nn1 (stereo not given in full)
  -14% | -3%
[2] COc1cc(-c2cc(C(=O)Nc3ccc(S(N)(=O)=O)cc3)c3ccccc3n2)cc(OC)c1OC
  10% | 1%
[3] C=CCNC(=S)N1CCN(c2ncc3c(=O)c(C(=O)O)cn(CC)c3n2)CC1
  0% | -1%
[4] COc1ccc(-n2ccnc(SCC(=O)NC3CCCC3)c2=O)cc1OC
  -5% | -18%
[5] C#CCOCCOCCOCCNc1nc(N2CCN(C(=O)C(Cc3cc4ccccc4[nH]3)n3cc(C(N)Cc4ccc(O)cc4)nn3)CC2)nc(N2CCN(C(=O)C(Cc3cc4ccccc4[nH]3)n3cc(C(N)Cc4ccc(O)cc4)nn3)CC2)n1 (stereo not given)
  1% | 9%
[6] CCOc1ccc(NC(=O)COn2nnc3ccc(S(=O)(=O)N4CCOCC4)cc32)cc1
  -11% | 4%
[7] FC(F)(F)c1cccc(Cc2noc(CN3CCCC(OCc4ccccn4)C3)n2)c1 (stereo not given)
  -4% | -6%
[8] CCCn1c(=O)[nH]c2ccccc21
  -6% | .
[9] CCCCOc1ccc(-c2nonc2NC(=O)c2ccco2)cc1
  -18% | -13%
[10] O=C(NNC(=O)c1ccc2ccccc2c1)c1ccc(Cl)cc1
  4% | i
[11] Cn1c(SCc2nc3ccccc3c(=O)[nH]2)nnc1-c1ccco1
  -16% | -22%
[12] CN(CCc1ccccc1)C(=O)c1cccc(NC(=O)Cc2cccc(NC(=O)C3CCN(C(=O)C4CCCC4)CC3)c2)c1
  -26% | -15%
[13] CN(c1ccccc1)S(=O)(=O)c1cccc(NC(=O)CSc2nccc(=O)[nH]2)c1
  -2% | i
[14] COc1ccc(S(=O)(=O)NCC(c2ccc(N(C)C)cc2)N2CCCC2)cc1F (stereo not given)
  -11% | -2%
[15] CC1CCCCN1C(=O)CSc1nnc2ccccn12 (stereo not given)
  -16% | i
[16] O=c1sc2ccccc2c(=O)n1Cc1ccccc1F
  -10% | i
[17] CCC(=O)Nc1ccc(Cl)c(-c2nc3ncccc3o2)c1
  -10% | i
[18] CCOc1ccc(Nc2oc(/C=C/c3cc(OC)c(OC)c(OC)c3)nc2C#N)cc1
  -15% | -19%
[19] CCN(C(=O)CSc1nnc(-c2ccccc2Br)o1)C1CCS(=O)(=O)C1 (stereo not given)
  -12% | -9%
[20] CCN(CC)c1ccc(/C=N/N2C(=O)c3ccccc3C2=O)cc1
  -8% | i
[21] CN(C)CCSc1nc(O)c(-c2ccccc2)c(=O)n1-c1ccccc1
  2% | -15%
[22] COc1cccc(NC(=O)CN(C)C(=O)COc2ccccc2Cc2ccccc2)c1
  -13% | -1%
[23] Oc1c(C(c2ccccc2F)N2CCCCC2)sc2nc(-c3ccco3)nn12 (stereo not given)
  2% | -1%
[24] CC(Oc1ccc(Br)cc1)C(=O)Nc1ccc(S(=O)(=O)NC2=NCCCCC2)cc1 (stereo not given)
  -29% | -30%
[25] C/C(=N\NC(=O)CSc1nc2ccccc2s1)c1cccnc1
  -14% | -19%
[26] Cc1cc(C)nc(SCC(=O)OCC(=O)Nc2ccccc2)n1
  -14% | -25%
[27] COCCCN1CC23C=CC(O2)C(C(=O)OC)C3C1=O (stereo not given)
  -2% | 0%
[28] COc1ccccc1NS(=O)(=O)c1cc(NC(=O)CCNC(C)=O)ccc1N1CCCCC1
  2% | -19%
[29] CCCNC(=O)COC(=O)c1cc(SC)ccc1Cl
  -9% | i
[30] O=C1c2ccccc2-c2nnc(-c3ccccc3)cc21
  3% | -7%
[31] O=C(CCS(=O)(=O)c1cccc2nonc12)Nc1cccc(F)c1
  0% | -7%
[32] Cc1ccccc1NC(=S)NC(NC(=O)C(C)(C)C)C(Cl)(Cl)Cl (stereo not given)
  -14% | -21%
[33] CCNC(=O)c1ccc2nc(-c3ccccc3)c(-c3ccccc3)nc2c1
  -11% | 18%
[34] CC[C@@]1(C(=O)OC)N[C@H](CN(C)C(=O)Nc2ccccc2)[C@@H]2C(=O)N(C)C(=O)[C@@H]21
  -18% | -4%
[35] CCc1ccc2nc(NC(=O)c3cc(C)on3)sc2c1
  -37% | .
[36] N#Cc1ccccc1OCC(=O)Nc1ccc2c(c1)OCO2
  -3% | i
[37] COc1ccc(C(=O)NCCS(=O)(=O)N2CCCC2)cc1
  8% | -6%
[38] O=C(Nc1ccc(N2CCOCC2)cc1)c1ccc2ncsc2c1
  -4% | -12%
[39] Cc1ccc(-c2nnc(SCC(=O)NC3CCCc4ccccc43)n2N)cc1 (stereo not given)
  -29% | ?
[40] O=C(N/C(=C\c1ccc(Cl)cc1)C(=O)N1CCCCC1)c1ccco1
  2% | -19%
[41] CCOC(=O)C1(CCOC)CCN(Cc2ccncc2)CC1
  -15% | -2%
[42] C=CCn1cnc2c(c1=O)c1nc3ccccc3nc1n2/N=C/c1ccccn1
  -7% | -1%
[43] NS(=O)(=O)c1ccc(CNC(=O)/C=C/c2ccccc2)cc1
  6% | -4%
[44] COC(CNC(=O)[C@H](CSCc1ccccc1)N1Cc2ccccc2C1=O)OC
  -8% | -23%
[45] COc1ccc(C(=O)Nc2cccc(OCc3cc(=O)n4c5c(sc4n3)CCCC5)c2)cc1OC
  1% | -6%
[46] Cc1ccc(Nc2cc(C)nc3nc(Cc4ccc(Cl)cc4)nn23)cc1
  -27% | ?
[47] O=C(CCC(=O)N1CCCCC1)Nc1nnc(C2CCCCC2)s1
  1% | i
[48] COC(=O)C1C(=O)/C(=C/N(C)C)C(=O)CC1(C)C (stereo not given)
  -1% | -7%
[49] O=c1oc2ccccc2cc1-c1nc(-c2cccc(Cl)c2)cs1
  -4% | -3%
[50] O=c1cc(-c2ccccc2)n2c(SCc3ccc(Br)cc3)nnc2[nH]1
  -16% | -3%
[51] O=C(NC(=S)N1CCN(c2ccc(C(F)(F)F)cc2[N+](=O)[O-])CC1)c1cccs1
  -23% | -14%
[52] COc1ccc(NC(=O)COC(=O)Cn2c(C)nc3ccccc32)cc1OC
  -10% | .
[53] CCN(CC)S(=O)(=O)c1ccc(Cl)c(NC(C)=O)c1
  1% | i
[54] COc1ccccc1CNC(=O)COC(=O)c1cnc(C)cn1
  -11% | i
[55] C=CCn1c(SCC(=O)CC(=O)OCC)nc2cc(C(=O)N3CCC(C(N)=O)CC3)ccc2c1=O
  -3% | -6%
[56] O=C(NCCc1ccc(F)cc1)C(=O)NCC(c1cccs1)S(=O)(=O)c1ccc(F)cc1 (stereo not given)
  -18% | -23%
[57] O=C(O)c1ccc(OCCN2CCCC2=O)cc1
  -2% | -14%
[58] Cn1cc(S(=O)(=O)N2CCCCCC2)cc1C(=O)N1CCN(c2ccccc2F)CC1
  -10% | -11%
[59] COc1ccc(NC(=O)Nc2cccc3[nH]c([C@@H]4O[C@H](CO)[C@@H](O)[C@H](O)[C@H]4O)nc23)cc1OC1CCCC1
  -1% | i
[60] Cc1ccc(NC(=O)c2nc(S(=O)(=O)Cc3ccccc3F)ncc2Cl)cc1C
  ? | ?

The last 5 compounds of the section before are carried over, then new ones follow:
Order of results: Vaccinia Venus | Vaccinia mCherry
[56] O=C(NCCc1ccc(F)cc1)C(=O)NCC(c1cccs1)S(=O)(=O)c1ccc(F)cc1 (stereo not given)
  -18% | -23%
[57] O=C(O)c1ccc(OCCN2CCCC2=O)cc1
  -2% | -14%
[58] Cn1cc(S(=O)(=O)N2CCCCCC2)cc1C(=O)N1CCN(c2ccccc2F)CC1
  -10% | -11%
[59] COc1ccc(NC(=O)Nc2cccc3[nH]c([C@@H]4O[C@H](CO)[C@@H](O)[C@H](O)[C@H]4O)nc23)cc1OC1CCCC1
  -1% | i
[60] Cc1ccc(NC(=O)c2nc(S(=O)(=O)Cc3ccccc3F)ncc2Cl)cc1C
  ? | ?
[61] CCc1ccc(NC(=O)C(=O)NCCN2CCN(C(=O)c3ccc(OC)cc3)CC2)cc1
  -27% | i
[62] c1cc(CNCCN2CCNCC2)ccn1
  -15% | i
[63] Cc1cccc(NC(=O)CSc2nc(=O)n(CCCN3CCOCC3)c3c2CCCC3)c1C
  -3% | i
[64] COc1cccc(Cn2c(Oc3ccccc3)nc3c2c(=O)n(C)c(=O)n3C)c1
  -17% | -25%
[65] CCOc1cc(CNc2ccc(C(=O)O)cc2)ccc1OCc1ccccc1
  ? | ?
[66] CSc1ccc(C(=O)C2CCCN(C(=O)c3nn(C)c(=O)c4ccccc34)C2)cc1 (stereo not given)
  -18% | i
[67] COc1ccccc1NC(=O)CCn1c(=O)oc2cc(Cl)ccc21
  -5% | -14%
[68] COc1cccc(CNC(=O)C(C)n2ccc3cc(S(=O)(=O)N4CCCCCC4)ccc32)c1 (stereo not given)
  -3% | -17%
[69] Cc1csc(NC(=O)CSc2nc(=O)n(CCN(C)C)c3c2CCCC3)n1
  -10% | 0%
[70] CCOc1cc(CNc2ccc(O)cc2)ccc1OCc1ccc(Cl)cc1
  -14% | -2%
[71] CCOc1ccc(/C=N/n2c(SC)nnc2-c2ccccc2)cc1OCC
  -11% | -13%
[72] CCOc1ccc(CN2CCCN(C)CC2)cc1
  -5% | i
[73] CCOC(=O)NN1C(=O)c2ccccc2NC1c1cccs1 (stereo not given)
  -7% | -7%
[74] O=C1NC[C@H](Cc2ccccc2)N(CC2CCN(CC3CCCC3)CC2)C1=O
  -15% | i
[75] Cc1csc(SC(C)C(=O)NCc2ccc3c(c2)OCO3)n1 (stereo not given)
  -8% | i
[76] O=C(CCl)Nc1cccc(S(=O)(=O)N2CCCCCC2)c1
  ? | ?
[77] O=C(/C=C/c1ccccc1O)c1ccco1
  13µM* | ?
[78] Cc1ccc(C(=O)N2CCC(N3CCC(C(=O)N4CCOCC4)CC3)CC2)cc1
  -12% | -2%
[79] COC(=O)CCc1n[nH]c(=O)[nH]c1=O
  -10% | i
[80] Cc1cccc(OCc2ccc(-c3nc(C#N)c(NCc4cccnc4)o3)o2)c1
  ? | -3%
[81] CC1=C(C)CC(C(=O)NCCc2ccc(F)cc2)C(C(=O)O)C1 (stereo not given)
  -11% | i
[82] CCCCOc1ccc(C(=O)NCc2cn3cccc(C)c3n2)cc1
  -7% | -5%
[83] Cn1c2ccccc2c2cc(C(=O)N3CCOc4ccc(C(C)(O)CCn5cccn5)cc4C3)ccc21 (stereo not given)
  -13% | -13%
[84] COc1cc(/C=N/NC(=O)C(Cc2c[nH]c3ccccc23)NC(=O)OCc2ccccc2)cc([N+](=O)[O-])c1O (stereo not given)
  -16% | 0%
[85] C/C(=N/NC(=O)c1cc(C2CC2)[nH]n1)c1cccs1
  -17% | -4%
[86] COc1ccc(-c2cc(OC)c3ccccc3n2)cc1
  -22% | -30%
[87] CCOC(=O)C1(CCOc2ccccc2)CCN(Cc2cc(OC)c3c(c2)OCO3)CC1
  -13% | -4%
[88] CCc1ccccc1NC(=O)c1cc(-c2ccc(OC)cc2)on1
  -4% | -7%
[89] COc1ccc(C(=O)NCC2COc3ccccc3O2)cc1S(=O)(=O)N1CCOCC1 (stereo not given)
  -9% | -2%
[90] CC(C)c1nc2sc3c(N4CCCCC4)ncnc3c2c2c1CCCC2
  -4% | 5%
[91] CCCN1CNc2c(c(=O)[nH]c(=S)n2CCc2ccccc2C)C1
  -3% | -13%
[92] O=c1cc(COc2cccc(C(F)(F)F)c2)nc2sc3c(n12)CCCC3
  -9% | -13%
[93] CCCC(c1nnnn1CS(=O)(=O)c1ccc(C)cc1)N1CCN(C2CCCC2)CC1 (stereo not given)
  -12% | 3%
[94] CCOC(=O)[C@@H]1[C@H]2COc3ccc(Br)cc3[C@@H]2N2C(=O)N(c3cccc(Cl)c3)C(=O)[C@]12C
  -14% | i
[95] Cn1c(=O)c2[nH]c(COc3ccccc3)nc2n(C)c1=O
  -19% | -27%
[96] CC(C)C(OC(=O)/C=C/c1ccc2c(c1)OCO2)C(=O)NC(N)=O (stereo not given)
  3% | -4%
[97] O=C1NC[C@H](CCCCN2CCN(Cc3ccccc3)C(=O)C2=O)N(CC2CCCCC2)C1=O
  9% | 14%
[98] CCN(CC)C(=O)c1ccccc1NC(=O)c1ccccc1SC
  -21% | i
[99] CC1(OC(=O)CCc2ccccc2)C(=O)C=C2C=C(c3ccc(C#N)cc3)N(C3CC3)C=C2C1=O (stereo not given)
  -5% | 3%
[100] CC(C)CC(=O)NCC(c1ccc2c(c1)OCO2)N1CCN(c2ccc(F)cc2)CC1 (stereo not given)
  11% | -4%
[101] O=C(NCCOCC(F)(F)C(F)F)c1cc(F)c(F)cc1Cl
  1% | -7%
[102] O=C(O)c1ccccc1/C=N/NC(=O)c1cc(-c2ccco2)nc2ccccc12
  0% | i
[103] CCOC(=O)C1=NOC(C(=O)NN(C)c2ncc(C(F)(F)F)cc2Cl)C1 (stereo not given)
  3% | ?
[104] COC(=O)c1ccc(OCC2c3cc(OC)c(OC)cc3CCN2C(=O)c2cccc(C)c2)cc1 (stereo not given)
  -9% | -9%
[105] CSc1nc2nc3c(cc2c(=O)n1-c1cccc(C)c1)COC(C)(C)C3
  -11% | -20%

By substructure: the entries above with a CF3 group (four)
Order of results: Vaccinia Venus | Vaccinia mCherry
[7] FC(F)(F)c1cccc(Cc2noc(CN3CCCC(OCc4ccccn4)C3)n2)c1 (stereo not given)
  -4% | -6%
[51] O=C(NC(=S)N1CCN(c2ccc(C(F)(F)F)cc2[N+](=O)[O-])CC1)c1cccs1
  -23% | -14%
[92] O=c1cc(COc2cccc(C(F)(F)F)c2)nc2sc3c(n12)CCCC3
  -9% | -13%
[103] CCOC(=O)C1=NOC(C(=O)NN(C)c2ncc(C(F)(F)F)cc2Cl)C1 (stereo not given)
  3% | ?
